Source: PubChem BioAssay
AF4-AF9 inh – inhibitors of human MLL-AF4/AF9 interaction; AlphaScreen, biotin-AF4 peptide binding to FLAG-AF9; inhibition, % at 10 µM; actives 0.47% (n = 350,000); AID 651704;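 active = every replicate reaching a set inhibition limit, whatever the replicate mean, cut at about 25% in these data; inconclusive = mean inhibition reaches that limit but some replicates miss it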;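 also: 0% = plate neutral control median and 100% = total signal loss; the record names both 10 and 1 µM as test concentration; the first replicate is given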
Target sequence (P42568 whole entry, looked up): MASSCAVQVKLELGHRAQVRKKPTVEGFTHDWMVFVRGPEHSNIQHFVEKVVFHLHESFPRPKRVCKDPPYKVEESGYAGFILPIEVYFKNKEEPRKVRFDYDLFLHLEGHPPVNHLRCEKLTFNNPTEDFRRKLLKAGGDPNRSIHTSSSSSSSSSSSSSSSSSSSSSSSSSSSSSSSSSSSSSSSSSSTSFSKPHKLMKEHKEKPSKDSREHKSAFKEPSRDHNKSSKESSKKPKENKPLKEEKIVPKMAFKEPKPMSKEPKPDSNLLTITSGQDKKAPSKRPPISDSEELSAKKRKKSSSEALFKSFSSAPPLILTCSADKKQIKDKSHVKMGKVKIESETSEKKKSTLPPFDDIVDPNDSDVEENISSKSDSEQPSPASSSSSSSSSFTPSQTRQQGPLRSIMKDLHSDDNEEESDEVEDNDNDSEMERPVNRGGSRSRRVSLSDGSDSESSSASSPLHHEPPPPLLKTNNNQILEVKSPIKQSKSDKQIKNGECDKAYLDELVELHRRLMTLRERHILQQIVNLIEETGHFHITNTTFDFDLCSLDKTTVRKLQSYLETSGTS
Vif TR-FRET – HIV-1 Vif–A3G interaction blockers – biochemical, TR-FRET, GST-Vif 1-94, biotin-A3G peptide, dose response retest, primary screen (AID 1117319) | TR-FRET GST-Vif / biotin-A3G peptide binding; higher % means a stronger effect; test concentration not given here; strong numbers were not always called active | inhibition, %, or IC50 in µM where a hit was titrated | actives 0.57% (n = 260,000);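 active = above the screen mean plus three standard deviations and confirmed in dose response; inconclusive = results disagree or hit not tested in dose response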;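 also: Vif residues 1-94 fused to GST binding biotinylated APOBEC3G peptide 110-148; 0% = full assay without inhibitor and 100% = GST in place of GST-Vif; retest series ran down from 100 µM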
rRNA inh HTS – selective bacterial rRNA inhibition in E. coli. AID 720706. E. coli WT GFP vs humanized-ribosome RFP mutants, fluorescence, 24 h; hits give low values; DMSO median 0, no signal -100. actives 1.6% (n = 350,000). GFP signal change (wild-type ribosome), % (no concentration beside the values);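 active = significant combined selectivity score with lowered wild-type GFP, culture density cut under 30%, mutant RFP and density less affected; inactive = any of these conditions unmet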; also: one replicate is shown; some compounds called inactive have numbers as strong as hits
A1 inh – inhibitors of the anti-apoptotic protein A1, read as caspase activation; MEF A1-2A-BIM cells, Caspase-Glo 3/7 luminescence, 3 h; percent of clofoctol response, vehicle zero; caspase activation, % (no concentration beside the values); actives 0.066% (n = 330,000); AID 2462;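 active = over half of replicate activation scores above 10%, or exactly half above 10 with the replicate mean above 10; inconclusive = replicate mean below 10 yet half the replicates above 10; inactive = over half of replicates below 10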;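 also: wells of about 30 µL received 50 nL stock; many hits fall short of the cut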
RanGTP-Imp inh – disruptors of Ran-importin-beta complex formation – biochemical, FRET, CFP-Ran, YFP-importin-beta, homogeneous, primary screen; cell-free CFP-Ran/YFP-importin-beta FRET ratio; AID 2216; actives 1.1% (n = 300,000); inhibition, % (test concentration not listed);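 active = most replicates above 15%; inconclusive = exactly half above 15%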;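 also: 0% = DMSO wells and 100% = Ran loaded with GDP instead of GTP; wells of about 40 µL received 100 nL stock; the first replicate is given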
Calb FLC – C. albicans growth modulation with fluconazole; C. albicans CaCi-2 (fluconazole-resistant clinical isolate) + fluconazole, Alamar Blue growth, 48 h; growth inhibition, % (test concentration not listed); actives 0.57% (n = 300,000); AID 1979;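 active = most replicates above 75%; inconclusive = exactly half above 75%; inactive = most below 75%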;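 also: all wells also contain fluconazole at 8 µg/ml as a sub-toxic cotreatment; 0% = median of DMSO wells and 100% = median of geldanamycin control wells; wells of about 8 µL received 7.5 nL stock; the first replicate is given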
T cruzi repl – T. cruzi replication inhibition | inhibition, % (concentration not given with the values) | T. cruzi beta-gal in NIH3T3, luminescence, 90 h | actives 1.4% (n = 300,000);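 active = mean inhibition across valid replicates above about 55%, limit read from the data; inconclusive = mean below that limit but half or more replicates reach it; inactive = mean below it, under half of replicates reach it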;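 also: signal also drops with host cell toxicity which is not excluded here; 0% = plate median of DMSO wells and 100% = zero luminescence signal; higher percent means less beta-gal luminescence so fewer parasites; stock transfer was 50 nL into about 50 µL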
Beta cell apopt – beta cell apoptosis inhibition | AID 435005 | actives 0.8% (n = 300,000) | protection from apoptosis, % (test concentration not listed) | INS-1E cytokine-induced death, ATP luminescence, 48 h; percent of positive-control rescue, neutral wells zero;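 active = all replicates at 75% or more, or half of them and the mean; inconclusive = half reach 75% but not the mean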;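 also: 0% = cytokine-treated negative control wells and 100% = positive control rescue; higher means more ATP so stronger rescue from cytokine killing; wells of about 40 µL received 100 nL stock; the first replicate is given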
rRNA inh HTS OD600 – second read-out of rRNA inh HTS, no call of its own (marks repeat the call); OD600 change, %; measured here: OD600 growth;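 optical density of the mix in the first replicate; 0 = DMSO median and -100 = no signal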
rRNA inh HTS RFP – also measured in rRNA inh HTS; calls as there; RFP signal change, %; measured here: RFP humanized mutant strains;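 first replicate; 0 = DMSO median and -100 = no signal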
Numbers without * were called inactive; ? = inconclusive; nt = no result given. Only part of the results is shown. The share of hits here may be higher or lower than overall.

SMILES | AF4-AF9 inh | Vif TR-FRET | rRNA inh HTS | rRNA inh HTS OD600 | rRNA inh HTS RFP | A1 inh | RanGTP-Imp inh | Calb FLC | T cruzi repl | Beta cell apopt
CCC(=O)Nc1nonc1-c1nc2ccccc2n1Cc1ccccc1 | nt | -11.9% | nt | nt | nt | 0.1 | -0.6 | -7.0 | 1.6 | -0.8
CCCn1nc(C(=O)OCC(=O)Nc2ccc(C(N)=O)cc2)c2ccccc2c1=O | 11.8 | -14.3% | 18.9 | 15.8 | 4.0 | 0.7 | nt | nt | nt | 2.6
O=C(CSc1ncccn1)N/N=C/c1ccccc1[N+](=O)[O-] | 0.0 | -4.9% | 9.3 | 9.4 | 0.7 | 0.5 | -1.7 | -9.2 | -12.6 | -7.6
COc1ccccc1-c1cn(S(=O)(=O)c2ccc(C)cc2)nc1N | nt | ? | nt | nt | nt | -0.2 | -2.0 | 9.3 | 12.1 | nt
COc1ccc(-n2cnnc2SCC(=O)Nc2ccccc2F)cc1 | -1.6 | -2.6% | 9.4 | 6.7 | -9.3 | 1.8 | 2.2 | -6.5 | -6.5 | -7.0
CCOC(=O)N1CCN(C(=O)c2cc3c(=O)[nH]c4ccccc4c3s2)CC1 | nt | 22.8% | -5.6 | 1.2 | 2.0 | -0.8 | -5.8 | 4.2 | -1.1 | 4.2
CC(C)N(Cc1ccccc1)C(=S)NCc1ccccc1 | -0.8 | -4.9% | -43.0 | -62.9 | -8.7 | -1.1 | 0.9 | -1.6 | 3.9 | -6.5
O=C(CC1C(=O)NCCN1Cc1ccc(F)cc1Cl)NCc1ccon1 (centres undefined) | -4.6 | nt | 6.2 | 8.5 | 2.6 | -0.5 | -1.0 | -1.7 | -20.8 | 0.3
CN(C)c1cccc2c1c(NC(=O)Nc1ccc(Cl)cc1Cl)nn2C | nt | -12.7% | 6.1 | -3.4 | 2.0 | 0.9 | 1.6 | -3.8 | -2.2 | -11.4
CN1CCN(/C=N/c2c(C#N)cnn2C)CC1 | nt | -5.8% | nt | nt | nt | -0.1 | -2.1 | -6.9 | 6.8 | -3.1
COc1cccc(-c2c(-c3cc(OC)cc(OC)c3)n(C)c3ccc(-c4cnc(N5CCOCC5)nc4)cc23)c1 | -1.1 | nt | 10.6 | 14.3 | -5.2 | -0.4 | nt | nt | nt | -2.7
COc1ccc(OCCC(=O)OCC(=O)NC(=O)NC(C)(C)C)cc1 | nt | 5.6% | 8.3 | -0.3 | 0.2 | -1.1 | 2.2 | -1.6 | 5.9 | -1.3
O=C(CSc1ncnc2scc(-c3ccc(Cl)cc3)c12)NCc1ccc2c(c1)OCO2 | nt | ? | nt | nt | nt | nt | ? | 1.5 | 37.7 | nt
COc1ccc(/C=C2\SC(=O)N(CCC(=O)Nc3ccccc3)C2=O)cc1OC | nt | 3.5% | nt | nt | nt | -0.6 | 2.1 | -2.3 | 0.5 | -1.7
CCN(Cc1ccccc1)c1c(C(=O)O)cnc2c1cnn2C | -1.1 | 5.1% | -3.2 | -2.8 | -0.7 | 0.0 | -4.3 | 5.3 | -1.8 | nt

Part of the list above, reformatted.
Each structure is followed by: AF4-AF9 inh	Vif TR-FRET	rRNA inh HTS	rRNA inh HTS OD600	rRNA inh HTS RFP	A1 inh	RanGTP-Imp inh	Calb FLC	T cruzi repl	Beta cell apopt
- CN(C)c1cccc2c1c(NC(=O)Nc1ccc(Cl)cc1Cl)nn2C
  nt	-12.7%	6.1	-3.4	2.0	0.9	1.6	-3.8	-2.2	-11.4
- COc1ccc(-n2cnnc2SCC(=O)Nc2ccccc2F)cc1
  -1.6	-2.6%	9.4	6.7	-9.3	1.8	2.2	-6.5	-6.5	-7.0
- COc1ccccc1-c1cn(S(=O)(=O)c2ccc(C)cc2)nc1N
  nt	?	nt	nt	nt	-0.2	-2.0	9.3	12.1	nt
- CCOC(=O)N1CCN(C(=O)c2cc3c(=O)[nH]c4ccccc4c3s2)CC1
  nt	22.8%	-5.6	1.2	2.0	-0.8	-5.8	4.2	-1.1	4.2

The list continues:
SMILES | AF4-AF9 inh | Vif TR-FRET | rRNA inh HTS | rRNA inh HTS OD600 | rRNA inh HTS RFP | A1 inh | RanGTP-Imp inh | Calb FLC | T cruzi repl | Beta cell apopt
Nc1nnc(-c2ccccc2Cl)s1 | nt | 19.1% | nt | nt | nt | ? | -0.5 | 9.3 | 0.6 | -10.2
Cc1cccc(NC(=O)CNC(=O)c2cccs2)n1 | 2.7 | -4.2% | 0.7 | 7.1 | -2.4 | 0.9 | -2.1 | -4.5 | 1.2 | -5.9
CCN(CC(=O)Nc1ccc(NC(C)=O)cc1)C(=O)/C=C/c1ccc(S(=O)(=O)N2CCCCCC2)cc1 | -0.5 | nt | 1.8 | 3.8 | 1.4 | -0.4 | -3.5 | -3.1 | 4.7 | -4.3
CC(=O)Nc1cccc(NC(=O)CSc2ncc(-c3ccc(Cl)cc3)n2Cc2ccco2)c1 | nt | 4.8% | nt | nt | nt | -1.2 | 0.1 | nt | -2.3 | -3.4
O=C(NC(Cc1ccccc1)C(=O)O)/C(=C\c1ccc(F)cc1)NC(=O)c1ccco1 (centres undefined) | -27.4 | nt | nt | nt | nt | -0.6 | -3.6 | 2.5 | -4.7 | nt
O=C(Nc1ccccc1N1CCCCC1)c1ccc(-c2ccc(Cl)cc2)o1 | nt | -0.5% | nt | nt | nt | -0.3 | 3.9 | 3.1 | -3.0 | 17.1
CCN(CC)C(=O)CSc1nc2ccccc2c(=O)n1CCC(=O)NCCc1ccc(OC)c(OC)c1 | -2.3 | -0.9% | 2.6 | 7.6 | 2.0 | -0.2 | 6.0 | -33.5 | 13.9 | -2.4
O=C(NCCO)C(=O)NCC1OCCCN1S(=O)(=O)c1cc(F)ccc1F (centres undefined) | 0.1 | -6.1% | 7.8 | 13.4 | 1.8 | 0.2 | 0.2 | 2.2 | -20.8 | -2.0
Nc1nc2nonc2nc1N | -1.6 | -2.3% | 23.1 | 0.5 | 3.4 | 1.0 | -0.3 | 8.3 | -10.8 | -4.2
O=c1/c(=C\c2ccc3c(c2)OCO3)sc2n1CCCN=2 | nt | -5.2% | nt | nt | nt | -5.0 | -4.6 | -3.3 | 5.2 | 1.1
Cc1cc(C)cc(OC(=O)C23CCC(C)(C(=O)O2)C3(C)C)c1 (centres undefined) | 5.7 | -1.8% | -4.2 | -8.1 | -3.0 | 0.1 | 1.9 | 11.8 | 3.2 | -2.0
O=C(Cc1ccc(S(=O)(=O)N2CCOCC2)s1)NNC(=O)c1ccccc1Cl | -0.5 | -14.2% | 4.5 | -3.8 | -2.6 | 0.8 | nt | nt | nt | -4.3
O=[N+]([O-])c1ccc(CN2CCOCCOCCN(Cc3ccc([N+](=O)[O-])cc3)CCOCC2)cc1 | nt | 5.1% | nt | nt | nt | 1.3 | 0.7 | 3.6 | 30.5 | -1.2
COc1cc(C2C(C#N)=C(N)Oc3cc(C)n(CC4CCCO4)c(=O)c32)cc2c1OCO2 (centres undefined) | nt | -6.8% | nt | nt | nt | nt | -3.9 | -10.2 | -5.4 | nt
CC(OC(=O)Cc1n[nH]c(=O)c2ccccc12)C(=O)Nc1cc(Cl)cc(Cl)c1 (centres undefined) | 0.7 | -2.5% | -39.3 | -45.5 | -3.9 | 0.1 | ? | -1.6 | -0.4 | 9.9
O=C(NC(=S)NCc1ccccc1)c1ccccc1Br | -0.9 | -4.7% | -2.4 | -15.2 | -0.2 | -0.1 | 4.8 | 1.5 | -8.4 | -1.3
CSC(=NC#N)N1CCN(c2ccccn2)CC1 | -0.7 | -3.9% | 16.1 | 13.8 | 0.5 | -0.4 | -3.9 | -4.3 | -1.1 | nt
COC(C(=O)NC1CCCCCCC1)c1ccccc1 (centres undefined) | nt | 20.2% | nt | nt | nt | -0.4 | 0.6 | -6.8 | -1.8 | -1.6
CCCCNC(=O)N1CCOCCOCCN(C(=O)NCCCC)CCOCC1 | nt | 1.4% | nt | nt | nt | -0.1 | -0.2 | -4.8 | 6.1 | -1.1
Cn1cccc1C(=O)OCC(=O)c1cc2ccccc2o1 | nt | -1.6% | nt | nt | nt | -0.1 | -1.3 | -8.1 | -4.9 | 2.1
Cc1cc(C)cc(-n2c(C)cc(C(=S)N3CCOCC3)c2C)c1 | nt | nt | nt | nt | nt | -0.4 | 5.6 | 4.4 | 15.1 | 0.6
O=C(CC1Oc2ccccc2NC1=O)NCCc1ccccc1 (centres undefined) | -0.4 | -0.5% | 8.5 | 10.9 | 5.6 | 1.3 | 3.1 | 1.5 | -9.9 | nt
CC(=O)NC12CC3CC(C1)CC(C(=O)NCc1ccc(C)cc1)(C3)C2 | 4.8 | nt | nt | nt | nt | -0.4 | 6.8 | -6.8 | 1.1 | -4.5
OC(CNC1CCCC1)COCCOc1ccc(Br)cc1 (centres undefined) | 5.3 | 3.0% | 12.6 | -2.9 | -2.3 | 0.1 | 2.6 | -5.4 | 41.1 | -1.7
CS(=O)(=O)c1ccc(S(=O)CC(=O)Oc2ccc(Cl)cc2)c([N+](=O)[O-])c1 (centres undefined) | nt | 19.9% | nt | nt | nt | 2.2 | -1.1 | 10.1 | -6.5 | 45.6
O=C(c1ccc(F)cc1)N1CCC(C(=O)N2CCN(S(=O)(=O)c3cccc(F)c3)CC2)CC1 | 0.9 | -13.8% | 5.3 | 1.2 | 2.9 | -0.1 | -4.1 | nt | 17.0 | 6.4
O=C(O/N=C\c1ccc(N2CCCCC2)c([N+](=O)[O-])c1)c1cccc(C(F)(F)F)c1 | nt | 3.1% | nt | nt | nt | -0.9 | 0.1 | ? | -8.5 | -0.5
Cn1c(=O)n(CC(N)=O)c2ccccc21 | nt | -5.2% | nt | nt | nt | 0.1 | 5.5 | -5.2 | -20.6 | -8.4
COc1ccc(Nc2nc(C)c3ccccc3n2)cc1 | nt | 28.6% | nt | nt | nt | -3.5 | 1.4 | 1.4 | -19.6 | -1.8
CCOc1ccc2nc(NCCCNC(=O)c3cc(OC)c(OC)c(OC)c3)c(C#N)cc2c1 | -18.0 | -5.3% | 2.7 | 9.6 | -0.9 | 1.0 | 134.9* | -4.9 | 6.9 | 4.8
C=CCC[C@H](Cc1ccc(F)cc1)C(=O)OC[C@@H](Cc1c[nH]c2ccccc12)NC(=O)[C@@H](CC=C)CC(=O)N[C@@H](CO)Cc1ccccc1 | 0.0 | nt | 4.5 | 12.7 | 2.7 | -1.3 | nt | nt | nt | 12.7
Cc1ccc(Cl)c(OCCCN(C)Cc2ccccc2)c1 | 1.4 | 0.2% | -16.4 | -11.0 | 12.4 | 0.3 | 1.7 | 5.5 | 37.5 | -1.5
COc1ccc(N(C(=O)c2cccc([N+](=O)[O-])c2)S(=O)(=O)c2ccc3c(c2)n(C)c(=O)n3C)cc1 | nt | 21.9% | nt | nt | nt | 0.4 | -3.0 | 10.1 | 0.9 | -9.8
